# Screening data deposited in PubChem by National Center for Advancing Translational Sciences (NCATS).
# Rango-impB inh: inhibitors of Rango-importin beta complex formation. Potency, µM (doses to about 92.2 µM), for the others: at the top dose inhibition of complex formation. hit rate 0.031% among 340,000. Rango CFP/YFP FRET sensor + importin beta, 45 min. Q14974; active = rising FRET ratio curve, often small or poorly fitted; inconclusive = mostly compound fluorescence or quenching in the first reads; inactive = flat curves in all reads;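 note: potency is the fitted concentration of half-maximal effect; 0% = DMSO wells and 100% = buffer wells lacking importin beta; nearly all actives have a fitted effect of over 15% in size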
#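 Inhibition scored from the CFP 486 nm/YFP 530 nm FRET ratio 45 min after adding 0.125 microM importin beta to 50 nM Rango biosensor preincubated 5 min with compound (room temperature, PBS with DTT, Tween-20, BSA). No-importin wells as positive control.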
# GLA inh pH 4.5: alpha-galactosidase A (human) inhibition, pH 4.5; P06280; purified enzyme, 4-MU-alpha-Gal fluorescence, pH 4.5; activity change, negative = inhibition, % at 105 µM; 230,000 tested, under 10 active; AID 1467; inconclusive = small, poorly fitted or top-dose-only inhibition, or a rising curve; inactive = flat fitted curve, though single readings scatter; no compound was filed as active;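 note: 0% = full activity with enzyme and -100% = basal without enzyme; dose as in the result columns while the protocol names 77 µM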
# Target sequence (P06280 whole entry, looked up): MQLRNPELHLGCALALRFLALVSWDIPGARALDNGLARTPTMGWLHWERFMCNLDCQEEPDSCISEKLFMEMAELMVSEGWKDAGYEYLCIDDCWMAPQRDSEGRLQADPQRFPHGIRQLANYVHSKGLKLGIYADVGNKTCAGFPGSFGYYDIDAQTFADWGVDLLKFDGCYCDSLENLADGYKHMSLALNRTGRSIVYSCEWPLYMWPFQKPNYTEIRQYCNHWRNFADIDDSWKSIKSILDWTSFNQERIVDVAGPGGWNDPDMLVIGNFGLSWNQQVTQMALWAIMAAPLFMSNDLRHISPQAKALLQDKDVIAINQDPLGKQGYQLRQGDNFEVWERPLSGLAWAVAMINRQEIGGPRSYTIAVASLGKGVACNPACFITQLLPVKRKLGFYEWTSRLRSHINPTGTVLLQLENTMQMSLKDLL
# Rango release inh: inhibitors of RanGTP-induced Rango-importin beta complex dissociation. Biochemical FRET Rango-importin beta, RanGTP-induced dissociation. Potency, µM (top dose mostly 46.1 µM), for the others: top-dose activity change, negative = inhibition. O95149+P62826. hit rate 0.071% among 340,000; active means falling FRET ratio curve, often poorly fitted, with flat reads before Ran was added; inconclusive means other falling curves, or compound fluorescence or quenching; inactive means flat or rising ratio curve;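 note: potency is the fitted concentration of half-maximal effect; % of control where 0% means no effect; nearly all actives have a fitted effect of over 45% in size; -100% = wells without RanGTP and RCC1; the record marks most hits as doubtful in a second field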
#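 Two FRET readings bracket the reaction: one 5 min after compound meets Rango–importin beta, another 45 min after RanGTP-RCC1 (0.6 uM Ran, 0.2 uM RCC1, 2 mM GTP) is added. Only the second defines inhibition.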
# miR-21 FLuc: miR-21 reporter, rising signal. HeLa miR-21 FLuc reporter, luciferase, 48 h. 340,000 tested, under 10 active. Potency, µM (top dose mostly 38.3 µM), for inactives: at the top dose reporter change, positive = more light; active = well fitted rising curve with a large enough effect; inconclusive = small, poorly fitted or top-dose-only effect; inactive = no such curve, though single readings can be large or run the other way;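 note: % of control where 0% means no effect; miR-21 action dims this reporter so a rising signal means less miR-21 action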
#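 Using DMEM plus 10% FBS, HeLa miR-21-FLuc cells are incubated with test compounds (final up to about 40uM) for 48 hours; firefly luciferase signal is then imaged following reagent-mediated lysis.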
# An asterisk follows results filed as active; ? = inconclusive; nt = not tested or not shown; & = joins results of further samples; [ ] = remark or other dose.
SMILES,Rango-impB inh,GLA inh pH 4.5,Rango release inh,miR-21 FLuc
CCCCn1nc(C(=O)N(CCOC)c2c(N)n(CCCC)c(=O)[nH]c2=O)c2ccccc2c1=O,0.0%,nt,-7%,nt
COc1ccccc1OCc1ccc(C(=O)NC(C)(C)C)o1,-1.2%,-4,2%,0%
O=S(=O)(NC(=S)NC1CCCCC1)c1cccs1,3.0%,1,2%,-3%
CC(CCc1ccccc1)NC(=O)CNC(=O)c1cccs1 (configuration not stated),2.3%,nt,0%,-2%
CCc1noc(C)c1C(=O)NCCc1ccc(Cl)cc1,5.7%,nt,17%,nt
CCC(=O)Nc1ccc2c(c1)C(=O)c1ccccc1C2=O,?,5,-11%,-55%
CCC(=O)Nc1cccc(NC(=S)NC(=O)c2ccc(C)cc2)c1,-0.8%,2,-11%,-50%
Cc1[nH]nc2nc(SCC(=O)NCC3CCCO3)n(-c3ccc(Br)cc3)c(=N)c12 (configuration not stated),4.5%,4,12%,0%
COc1ccc2cc3cc(C(=O)NCCN4CCc5ccccc5C4)oc3nc2c1,1.4%,19,?,13%
NS(=O)(=O)c1ccc(NC(=O)c2ccc(Cl)c(S(=O)(=O)NCc3ccco3)c2)cc1,4.3%,nt,1%,nt
Cc1sc2ncn(CC(=O)N3CCC(C(N)=O)CC3)c(=O)c2c1S(=O)(=O)N1CCOCC1,6.0%,nt,0%,4%
CC1(C)CC(NC2C3CC4CC(C3)CC2C4)CC(C)(C)N1 (configuration not stated),-0.7%,-4,0%,-9%
COc1ccccc1Cn1nnc2c(=O)[nH]c(C3CCN(C(=O)c4ccc(C)cc4)CC3)nc21,-1.4%,-17,-4%,-7%
COc1ccc(N(C(=O)c2ccc(C)cc2)S(=O)(=O)c2cccs2)cc1,-0.6%,-3,8%,-7%
O=S(=O)(NCc1cc(-c2ccccc2)no1)c1ccc(Cl)cc1,2.7%,1,-11%,-1%
O=[N+]([O-])c1ccc2nc(/C=C/c3ccc(Cl)cc3)[nH]c2c1,2.8%,3,0%,27%
Cc1c(C(=O)Nc2ccc(Cl)cc2)c2ccccn2c1C(=O)c1ccc([N+](=O)[O-])cc1,2.1%,-4,-13%,-1%
C=CCn1c(-c2ccccc2OC)n[nH]c1=S,-1.3%,0,15%,5%
CC(C)C(NS(=O)(=O)c1cccc2nsnc12)C(=O)N1CCc2ccccc2C1 (configuration not stated),-0.3%,10,-2%,-3%
O=C(NCc1ccco1)/C(=C/C=C/c1ccccc1)NC(=O)c1ccco1,-0.4%,2,4%,-9%
CCCn1c(=O)c(C(=O)NCc2ccncc2)c(O)c2ccccc21,-0.1%,-8,-16%,1%
Cc1sc2nc(SCC(=O)Nc3ccc(Cl)c(C(=O)O)c3)[nH]c(=O)c2c1C,-2.1%,nt,0%,nt
COc1cc2c(cc1OC)C(C)N(C(=O)c1cc3c(s1)-c1c(C)cccc1OC3)CC2 (configuration not stated),-0.7%,6,-13%,-12%
NNC(=O)CCc1ccc(S(=O)(=O)N2CCOCC2)cc1,0.0%,10,7%,-1%
COc1ccc(CCNC(=O)C2(C)CCC(=O)N2Cc2ccc3c(c2)OCO3)cc1OC (configuration not stated),-4.3%,6,8%,-6%
# Following part
SMILES,Rango-impB inh,GLA inh pH 4.5,Rango release inh,miR-21 FLuc
N#CC1=C(N)Nc2ncnn2C1c1ccc(F)cc1 (configuration not stated),3.5%,-1,-3%,-11%
c1ccc(OCCOc2ncnc3sccc23)cc1,3.0%,-4,4%,-57%
CCc1c(C(=O)Nc2ccccc2C(N)=O)csc1C,0.7%,nt,6%,-42%
CC(CC(=O)Nc1nnc(C(C)(C)C)s1)c1ccccc1 (configuration not stated),0.1%,nt,0%,-1%
O=C(O)c1cc(NN=Nc2cccc(S(=O)(=O)O)c2)cc([N+](=O)[O-])c1,0.3%,nt,1%,-1%
CCCCOC(=O)CSc1nc(N)c(C#N)c(-c2ccc(OCC)cc2)c1C#N,0.5%,-2,-10%,-14%
COc1cc([N+](=O)[O-])ccc1NC(=O)C1C2C=CC(C2)C1C(=O)O (configuration not stated),1.9%,nt,-9%,-1%
O=C(O)c1cccc(S(=O)(=O)NCC2COc3ccccc3O2)c1 (configuration not stated),5.2%,nt,9%,nt
Cc1ccc(NCc2nc3ccccc3n2C)c(C)c1,-3.0%,nt,10%,-8%
CCOc1ccccc1N1Cc2ccccc2C1,4.3%,-8,-7%,-3%
Cc1ccc(S(=O)(=O)N(C)c2ccc3sc(C)nc3c2)cc1,0.2%,-20,-3%,20%
Cc1ccc(CN2CCN(Cc3cnc(N4CCOCC4)s3)CC2CCO)o1 (configuration not stated),-2.2%,0,2%,-3%
CCOC(=O)N1CCN(C2=C(NS(=O)(=O)c3ccc(NC(C)=O)cc3)C(=O)c3ccccc3C2=O)CC1,-3.7%,nt,-8%,3%
O=C(Cn1nc(C(=O)O)c2ccccc2c1=O)Nc1cc(Cl)cc(Cl)c1,0.4%,nt,0%,0%
COc1cccc(C(=O)NCC(=O)N/N=C/c2ccc3c(c2)OCO3)c1,-0.6%,nt,1%,-9%
O=[N+]([O-])c1cccc(S(=O)(=O)N2CCN(c3ccccn3)CC2)c1,0.7%,nt,10%,-4%
COc1ccc(-c2csc3nc(-c4ccc(C)cc4)oc(=O)c23)cc1OC,1.3%,-4,-12%,-6%&3%
COc1ccc(CCNC(=O)CN(c2ccc(OC)c(OC)c2)S(=O)(=O)c2ccccc2)cc1OC,-3.3%,nt,-15%,-1%
CCCCN(C(=O)CCCSc1nc2ccccc2[nH]1)c1c(N)n(Cc2ccccc2)c(=O)[nH]c1=O,3.1%,nt,15%,-3%
COc1ccccc1N1CCN(C(=O)COc2cc(C)cc(C)c2)CC1,-5.5%,6,-10%,0%
CC1=C(C(=O)OCC2CCCO2)C(c2coc3ccccc3c2=O)C2=C(CCCC2=O)N1 (configuration not stated),0.3%,0[21.1 µM],-20%,0%
O=c1c2ccccc2nc(SCc2cn3ccsc3n2)n1-c1ccccc1,2.9%,-9,?,-15%
CSCCC(NS(=O)(=O)c1ccc2c(c1)oc(=O)n2C)C(=O)NCc1ccccc1 (configuration not stated),-3.2%,3,4%,2%&-1%
COc1ccc(-c2cc(C(=O)NC(C)c3ccccn3)c3ccccc3n2)cc1OC (configuration not stated),3.1%,nt,-2%,nt
CCc1ccc(-n2ccc(=O)c(C(=O)O)n2)cc1,0.8%,nt,-15%,-3%
# The results go on:
SMILES,Rango-impB inh,GLA inh pH 4.5,Rango release inh,miR-21 FLuc
COc1ccc(/C=N/n2c(C)nc3ccccc3c2=O)cc1,-5.3%,nt,-3%,-10%
COc1ccc(C)cc1N(C(=O)c1cccc(F)c1)c1nc2ccccc2s1,-1.3%,-3,0%,10%
O=C(c1cc2c(ccc3ccccc32)o1)N1CCN(c2ncc(C(F)(F)F)cc2Cl)CC1,-0.8%,2,-15%,-1%
COc1ccc2c(=O)cc(-c3cccnc3)oc2c1OC,0.5%,5,-2%,-21%
CCn1c(SCC(=O)NC2CCCc3ccccc32)nnc1-c1ccncc1 (configuration not stated),-4.0%,-11,20%,0%
CCOc1ccc(-n2c(SCC(=O)Nc3ccccc3C)n[nH]c2=O)cc1,1.2%,1,11%,-4%
CCn1c(=O)c(C(=O)NCCc2ccccc2)c(O)c2ccccc21,4.8%,-10,-6%,-6%
CCC(NC(=O)Cn1cnc2c(=O)n(C)c(=O)n(C)c21)c1ccccc1 (configuration not stated),3.3%,-1,13%,0%
N#Cc1c(SCC(=O)O)nc(N2CCCCC2)c2c1CCCC2,-1.4%,0,2%,-5%
COc1cccc(-n2cn[nH]c2=S)c1,-3.0%,3[21.1 µM],-15%,-7%
COc1ccc(CCNC(=O)c2ccc3c(c2)OCO3)cc1,-4.0%,nt,5%,-39%
Cc1cc(CN2CCC(n3nccc3NC(=O)c3ccccc3Cl)CC2)cc(C)c1O,0.6%,nt,2%,-1%
O=C(NC1(C(F)(F)F)NC(=O)N(C2CCCC2)C1=O)C1CC1 (configuration not stated),-0.3%,-6,-10%,1%
COc1ccc(S(=O)(=O)N=C2C=C(C)C(=O)C(C)=C2)cc1,-3.5%,4,-1%,-6%
COCCCNC(=S)N1CCCN(c2nc3cc(C)ccc3cc2C#N)CC1,?,-18,?,5%
Cc1ccc2c(CC(=O)OCC(=O)Nc3ccc(Cl)cn3)coc2c1,?,2,?,-2%
Cn1c(CNc2ccccc2)cc(=O)n(C)c1=O,3.7%,-7,10%,-3%
Cc1cc(C(=O)COC(=O)c2ccc(N)c([N+](=O)[O-])c2)c(C)n1-c1ccc2c(c1)OCO2,0.1%,-2,-10%,7%
O=C(NCCc1ccccc1)C1CCN(S(=O)(=O)c2ccc(-c3nn[nH]n3)cc2)CC1,2.5%,1,8%,-2%
CCOCCn1c(CN2CCCCC2)nc2c1c(=O)n(C)c(=O)n2C,7.4%,nt,10%,0%
COC(=O)C1=CN(CC2CCCO2)C=C(C(=O)OC)C1c1cccc(O)c1 (configuration not stated),?,25[21.1 µM],?,1%
CCCCn1c(=NC(=O)c2cccnc2)c(C(=O)OCC)cc2c(=O)n3ccccc3nc21,?,11,?,-5%
C=CCN1C(=O)CSC1=Nc1ccc(O)cc1,-0.5%,10,-11%,-4%
Cc1cccc(CN2CCN(CC(=O)N3CCCC3)C2=O)c1,0.9%,-11,-7%,-5%
CCCCOc1ccc(/C(O)=C2/C(=O)C(=O)N(CCN(C)C)C2c2ccc(O)c(OC)c2)cc1 (configuration not stated),-10%,11,-13%,-4%
# Continuation:
SMILES,Rango-impB inh,GLA inh pH 4.5,Rango release inh,miR-21 FLuc
Oc1ccc2c(c1)C1CCCC1(N1CCOCC1)O2 (configuration not stated),-0.6%,-11,-15%,-8%
CCC(=O)N1CCc2cc(S(=O)(=O)NCCC(=O)Nc3cc(C)cc(C)c3)ccc21,0.3%,-4,0%,-2%
Cc1nn(-c2ccc(N3CCCCC3)nn2)c(C)c1CCC(=O)Nc1ccc(F)cc1,0.2%,nt,-9%,-9%
C[C@@H]1COC(=O)[C@@H](CC(=O)OC(C)(C)C)C/C=C\C[C@H](CC(=O)N(CCO)Cc2ccccc2)C(=O)N1,-2.6%,nt,-8%,nt
Cc1ccc(C(=O)Nc2cccc(-c3cnc4ccccc4n3)c2)cc1,-1.0%,-2,6%,-12%
O=C1CSC2(C(=O)N3CCCc4cccc2c43)N1c1cccc(C(F)(F)F)c1 (configuration not stated),1.6%,-20,10%,-1%
O=S(=O)(NCc1ccccn1)c1ccc(F)cc1,0.1%,-7,-1%,-1%
CC(=O)Oc1ccc(Cl)cc1/C=C/c1ccc2ccccc2n1,7.6%,-1,-8%,-57%
O=C1N(c2cccc3ccccc23)C(c2ccccc2)N2CCCN12 (configuration not stated),0.2%,6,-15%,0%
Cc1cc(C)nc(NN=C2CCCC2)n1,4.0%,-4,6%,-4%
CC(C)Cc1cc(C(=O)N2CCCC(C(=O)c3cc(F)ccc3F)C2)n(C)n1 (configuration not stated),-1.1%,nt,-9%,4%
CCN(CC)S(=O)(=O)c1ccc(OCCNS(C)(=O)=O)cc1,-0.8%,-2,-20%,1%
CCc1cc(C(c2ccc(F)cc2)N2CCOCC2)c(NC(=O)c2ccccc2)s1 (configuration not stated),0.3%,3,7%,-17%
CCOC(=O)c1cnc2c(C)cc(Cl)cc2c1N1CCN(C)CC1,-0.7%,nt,27%,-10%
C(=C\c1ccccn1)/c1ccncc1,-0.6%,-2,-7%,-38%
CC(C)CC(=O)Nc1ccccc1N1CCN(C(=O)c2ccccc2)CC1,0.7%,7,2%,1%
O=C1C=C(N2CCCCC2)c2ccccc2C1=O,0.8%,nt,-14%,nt

# Profiles, quoted from the list. Values in the order: Rango-impB inh, GLA inh pH 4.5, Rango release inh, miR-21 FLuc
# Results for Oc1ccc2c(c1)C1CCCC1(N1CCOCC1)O2 (configuration not stated) → -0.6%, -11, -15%, -8%
# Results for C[C@@H]1COC(=O)[C@@H](CC(=O)OC(C)(C)C)C/C=C\C[C@H](CC(=O)N(CCO)Cc2ccccc2)C(=O)N1 → -2.6%, nt, -8%, nt
# Results for CC(C)Cc1cc(C(=O)N2CCCC(C(=O)c3cc(F)ccc3F)C2)n(C)n1 (configuration not stated) → -1.1%, nt, -9%, 4%
# Results for Cc1nn(-c2ccc(N3CCCCC3)nn2)c(C)c1CCC(=O)Nc1ccc(F)cc1 → 0.2%, nt, -9%, -9%
# Results for CCOC(=O)c1cnc2c(C)cc(Cl)cc2c1N1CCN(C)CC1 → -0.7%, nt, 27%, -10%

# Not all compounds are listed; the hit share may differ from the screen's.
